# H5N1 CPE: MDCK cell protection from H5N1 avian flu. cytopathic effect, luminescence, 72 h; active compounds read high; no value below 0 was filed and about half of the inactive calls have no number; reference of the scale not given here. inhibition, % at 50 µM. actives 0.07% (n = 96,000). AID 740, 2007; in the data active means inhibition above about 25%
# An asterisk follows results filed as active; i = inactive. This is a subset, so the mix of outcomes need not match the whole.
SMILES,H5N1 CPE
CC1(C)Cc2ccccc2-c2nc(-c3ccccc3)oc(=O)c21,0.2
CC1(C)CC(=O)C2=C(C1)NC(=O)C21C(C(=O)OC(C)(C)C)=C(N)Oc2ccc(Br)cc21 (configuration not stated),i
COc1ccc(C)cc1NC(=O)CN1CCN(S(=O)(=O)c2ccc(Br)cc2)CC1,0.4
O=C(CCc1nc(-c2ccccc2F)no1)NCCc1ccccc1Cl,0.9
CCn1c(SCC(=O)Nc2ccc3c(c2)OCCO3)nnc1-c1cccs1,0.9
Cc1ccc(P(=O)(OCCN2CCOCC2)C(C)(C)C)o1 (configuration not stated),1.5
CCOC(=O)c1[nH]c2ccccc2c1NC(=O)COC,1.3
O=C(Nc1ccc(Cl)cc1C(=O)Nc1ccccn1)c1ccco1,i
O=C(NCc1ccc2c(c1)OCO2)c1cccc([N+](=O)[O-])c1,0.3
Nc1cc(-c2ccccc2)nn1S(=O)(=O)c1ccc(F)cc1,i
CCN(CC)CCCNc1oc(-c2ccc(OC)c(OC)c2)nc1C#N,i
Cc1c(-c2cccs2)[n+](=O)c2c(n1[O-])CCC2,1.1
COC(=O)C(O)(c1ccc(NC(=S)NC(=O)c2ccccc2)cc1)C(F)(F)F (configuration not stated),i
O=C(NCc1ccccn1)c1cc2cc(Br)ccc2oc1=O,0.7
COc1ccc(C(=O)/C=C/c2ccc(OC)c(COc3ccc(F)cc3)c2)cc1,0.1
CCCOc1ccc(-c2nc(C#N)c(N3CCc4ccccc4C3)o2)cc1,2.8
COc1cc(NC(=O)CSc2nnc(-c3ccncc3)n2C2CCCCC2)ccc1NC(=O)c1ccco1,1.5
CC1(C)CC(=O)c2cn3c(nc2C1)nc1ccccc13,1.0
Fc1cc2nccnc2cc1N1CCSCC1,1.1
CCC(=O)c1ccc(N2CCN(C(=O)COc3ccc(F)cc3)CC2)c(F)c1,2.2
CC1=C(C(=O)Nc2ccccc2)C(c2ccc(C)o2)n2c(s/c(=C\c3ccco3)c2=O)=N1 (configuration not stated),1.1
CCCCOC(=O)n1c(SCC(=O)N(CC)CC)nc2ccccc21,i
COC(=O)c1ccc(-n2nnnc2SCC(=O)Nc2ccccc2C(=O)OC)cc1,0.6
COC(=O)C1=C(CSCc2ccccc2)NC(=O)NC1c1cc(C)ccc1C (configuration not stated),i
O=C(CN(c1ccccc1)S(=O)(=O)c1ccccc1)NCCSc1nc2ccccc2s1,i

# Copied from above for reference:
SMILES,H5N1 CPE
COc1ccc(C)cc1NC(=O)CN1CCN(S(=O)(=O)c2ccc(Br)cc2)CC1,0.4
O=C(CCc1nc(-c2ccccc2F)no1)NCCc1ccccc1Cl,0.9
CCn1c(SCC(=O)Nc2ccc3c(c2)OCCO3)nnc1-c1cccs1,0.9
Cc1ccc(P(=O)(OCCN2CCOCC2)C(C)(C)C)o1 (configuration not stated),1.5
CCOC(=O)c1[nH]c2ccccc2c1NC(=O)COC,1.3

# Back to the main list with the six entries that preceded the break.
SMILES,H5N1 CPE
CCC(=O)c1ccc(N2CCN(C(=O)COc3ccc(F)cc3)CC2)c(F)c1,2.2
CC1=C(C(=O)Nc2ccccc2)C(c2ccc(C)o2)n2c(s/c(=C\c3ccco3)c2=O)=N1 (configuration not stated),1.1
CCCCOC(=O)n1c(SCC(=O)N(CC)CC)nc2ccccc21,i
COC(=O)c1ccc(-n2nnnc2SCC(=O)Nc2ccccc2C(=O)OC)cc1,0.6
COC(=O)C1=C(CSCc2ccccc2)NC(=O)NC1c1cc(C)ccc1C (configuration not stated),i
O=C(CN(c1ccccc1)S(=O)(=O)c1ccccc1)NCCSc1nc2ccccc2s1,i
CNc1nnc(CSc2nc(C)cc(C)n2)s1,1.2
CC1(C)Cc2c(sc3c2C(=O)N(c2ccccc2)C2=NCCCN23)CO1,0.7
O=C(c1ccccc1)N1CCN(CC#Cc2ccccc2)CC1,0.6
COc1ccccc1N1CCN(C(=O)CSc2nc3ccccc3c(=O)n2CC2CCCO2)CC1 (configuration not stated),0.2
CCOc1ccc2nc(NC(=O)C3CCCN(S(=O)(=O)c4cccs4)C3)sc2c1 (configuration not stated),i
Cn1c(C(=O)NCC2CCCO2)cc2c(=O)[nH]c3ccccc3c21 (configuration not stated),i
COc1cc(NC(=O)c2ccco2)c(OC)cc1NC(=O)Nc1cccc(Cl)c1,i
COc1cccc(NC(=O)Cn2cnc3sc(C)c(S(=O)(=O)N4CCN(C)CC4)c3c2=O)c1,1.3
[O-]/[N+](=C/c1cccnc1)c1ccc(Br)cc1,i
CC1CSc2nnc(CCc3ccccc3)n21 (configuration not stated),0.4
COc1ccc(C2(C(=O)NCCCN3CCOCC3)CCOCC2)cc1,i
O=C(NC1CC1)c1cc(F)c(F)cc1Cl,0.6
CCCSC1=N/C(=C\c2ccsc2)C(=O)S1,i
CCOC(=O)c1sc(N(C)C(C)=O)nc1C,1.2
O=P(NS(=O)(=O)c1ccccc1)(Oc1ccccc1)Oc1ccccc1,i
CC(=O)Nc1ccccc1C(=O)N1CCc2ccccc21,i
O=C(CS(=O)CC(=O)N(c1ccccc1)C(C(=O)NC1CCCC1)c1cccs1)Nc1ccc(F)cc1 (configuration not stated),i
CSc1nnc(-c2ccccc2N=Cc2c(C)[nH]n(-c3ccc4ccccc4c3)c2=O)c(=O)[nH]1,i
Cn1c(COc2ccccc2)nnc1SCc1cc(=O)[nH]c2ccccc12,0.4
CS(=O)(=O)n1nc(-c2ccccc2)nc1N,0.2
CCn1c(SC/C=C/c2ccccc2)nnc1-c1cccs1,0.1
COc1ccc(C(CNC(=O)COc2ccccc2C#N)N2CCOCC2)cc1 (configuration not stated),0.9
CC1CCCCC1NS(=O)(=O)c1ccc(-n2cnnn2)cc1 (configuration not stated),0.2
Cn1c(Cc2ccccc2)nnc1SCC(=O)N1CCN(c2ccccc2)CC1,0.5
CN1CCN(CCCNC(=O)c2cc3c(=O)n(C)c4ccccc4c3s2)CC1,9.4

# Next section.
SMILES,H5N1 CPE
CCn1c(SCC(=O)Nc2nc(C)c(C)s2)nnc1-c1cccnc1,i
Cc1ccc(C)c2[nH]c(=O)c(C(c3nnnn3C3CCCC3)N3CCOCC3)cc12 (configuration not stated),0.1
Cc1c(C(c2cc3c(cc2Br)OCO3)c2c(C)n(C)n(-c3ccccc3)c2=O)c(=O)n(-c2ccccc2)n1C,i
N#CCCN(C(=O)CSc1ccc2c(c1)OCCO2)c1ccc(F)cc1,1.9
COc1cc(OC)c(C2N(C)c3ccccc3N2C)cc1OC,0.2
Clc1ccc2nc(CN3CCCc4ccccc43)cn2c1,2.3
CCCNC(=O)Cn1cccc1C(=O)c1ccccc1,0.5
O=C(c1ccccc1)c1coc2ccc(O)c(CN3CCOCC3)c12,0.2
COc1ccc(CNC(=O)C2CCN(S(=O)(=O)c3c(C)n[nH]c3C)CC2)cc1,i
COC(=O)c1[nH]c2ccc(Cl)cc2c1NC(=O)CN1CCC(C(N)=O)CC1,i
CC(C)CC(=O)NC(NCC1CCCO1)C(Cl)(Cl)Cl (configuration not stated),i
Cc1cc2c(cc1C)CSC(c1ccccc1OC(=O)C(C)C)SC2,i
NC(=O)c1ccc(C2SCC(=O)N2Cc2ccccc2)cc1 (configuration not stated),i
COCCN1C(=O)C(CC(=O)Nc2ccccc2)SC1=Nc1ccc(OC)cc1 (configuration not stated),i
CC1CCc2c(sc(NC(=O)CSc3ncnc4c3cnn4-c3ccccc3Cl)c2C#N)C1 (configuration not stated),i
COc1ccc(C(=O)Nc2nc(-c3cccs3)cs2)cc1,i
O=C(N/N=C/C1CCCCC1)c1cc(Cl)ccc1O,0.3
CCSc1nnc(NC(=O)c2csc(C)c2)s1,i
Cc1ccc(C)c(N(C(=O)CCC(=O)Nc2cc(C)on2)C(C(=O)NC2CCCC2)c2ccco2)c1 (configuration not stated),i
O=S(=O)(Nc1ccc2c(c1)nc1n2CCN(Cc2ccccc2)C1)c1ccc(F)cc1,0.5
O=C(c1ccc(Cl)cc1Cl)c1ncc(C(F)(F)F)cc1Cl,i
COc1ccc(C(=O)C(CO)Oc2ccccc2OC)cc1OC (configuration not stated),i
O=C(/C=C/Nc1cccc(F)c1)c1ccco1,i
Cn1c(=O)c2c(nc(NCCCO)n2C/C=C/c2ccccc2)n(C)c1=O,0.8
COc1cc(C2C3C(=O)N(c4ccc(F)cc4)C(=O)C3ON2c2ccccc2)ccc1O (configuration not stated),i

# Reformatted bar-delimited: part of the list above.
SMILES | H5N1 CPE
CC1=C(C(=O)Nc2ccccc2)C(c2ccc(C)o2)n2c(s/c(=C\c3ccco3)c2=O)=N1 (configuration not stated) | 1.1
CCCCOC(=O)n1c(SCC(=O)N(CC)CC)nc2ccccc21 | i
COC(=O)c1ccc(-n2nnnc2SCC(=O)Nc2ccccc2C(=O)OC)cc1 | 0.6

# Next part.
SMILES,H5N1 CPE
COC(=O)COc1ccc(S(=O)(=O)NCC2CCCO2)cc1Cl (configuration not stated),1.0
O=c1oc2ccccc2nc1/C=C(O)/C=C\c1ccccc1,5.8
COc1ccc2c(c1OC)C(=O)OC2CC(=O)c1ccc(O)c(O)c1 (configuration not stated),0.5
O=C(NC1(C(F)(F)F)NC(=O)N(Cc2ccccc2)C1=O)c1cccnc1 (configuration not stated),1.6
Cc1ccc(-c2nc(=S)c3c(n2CC2CCCO2)CC(C)(C)OC3)cc1 (configuration not stated),0.2
COc1ccc(-c2nc(C#N)c(N3CC(C)OC(C)C3)o2)cc1OC (configuration not stated),0.2
O=C(O)C1CCN(C(=O)c2ccc(Cl)cc2)CC1,i
CCCS(=O)(=O)N1CCN(Cc2ccccc2C(F)(F)F)CC1,i
COC(=O)C(Cc1ccc(OC(=O)c2ccc(Cl)cc2)cc1)N1Cc2ccccc2C1=O (configuration not stated),0.4
CCOc1cc(/C=N/NC(=O)CN2CCOCC2)ccc1OCc1ccc(Cl)cc1,0.4
CCOC(=O)N1CCN(S(=O)(=O)Cc2ccccc2)CC1,0.5
COc1ccc(N=C2C(=Nc3ccc(OC)cc3)N(c3ccc(OC)cc3)C(=S)N2C)cc1,i
COc1ccc2c(c1)c(C(=O)CN1CCOCC1)c(C)n2C,0.8
COc1cccc(CC(NC(C)=O)C(=O)NC2CCN(c3nc(C)cc(C)c3C#N)CC2)c1 (configuration not stated),i
Cc1cc(=O)oc(C)c1C(=O)OCC(=O)c1ccc2ccccc2c1,0.3
CC(=O)N1C(=O)C2(C(C#N)=C(N)Oc3cc(C)oc(=O)c32)c2ccccc21 (configuration not stated),i
Cc1ccc(Cn2nnc(C(=O)Nc3cc(C)ccc3C)c2N)cc1,i
CC(C)NC(=O)c1ccc(-c2cc(C(F)(F)F)ccc2Cl)o1,i
O=C(Nc1ccc2c(c1)OCO2)c1ccc(Br)o1,i
COC(=O)CSc1nnc2n(-c3ccc(OC)cc3)c(=O)c3c4c(sc3n12)CCCCC4,3.2
C=CCn1c(N)cc(=O)nc1SCC(=O)NC(C)c1ccccc1 (configuration not stated),i
CCn1nc(-c2ccccc2)nc2c(=O)n(C)c(=O)nc1-2,i
O=C(CN1CCCCCC1=O)OCc1ncc(-c2ccccc2)o1,i
CCOC(=O)c1c(C)[nH]c(C(=O)COC(=O)c2oc3ccc(OC)cc3c2C)c1C,i
Cc1nnc2n(c1=O)C(CS(=O)(=O)c1ccccc1)CS2 (configuration not stated),1.3

# The list goes on.
SMILES,H5N1 CPE
COC(=O)c1ccc(Oc2nc(Nc3ccccc3)nc(N(C)C)n2)cc1,i
CCN(CC)S(=O)(=O)c1ccc(C(=O)Nc2c3c(nn2C(C)(C)C)CS(=O)(=O)C3)cc1,0.4
CC(=O)Oc1ccc(-c2cccc(C(=O)Oc3ccccc3)c2)cc1,i
CCC(C)(C)n1nnnc1C(c1ccccc1)N1CCc2ccccc2C1 (configuration not stated),0.1
CCCOc1ccc(CSc2nnc(CCC)n2N)cc1,0.1
Cc1ccc(Nc2nc(Oc3ccc(OCc4ccccc4)nn3)nc(N3CCOCC3)n2)cc1,0.4
Fc1cccc(CCNCc2ccccn2)c1,i
Cc1cc(C)nc(NS(=O)(=O)c2ccc(NC(=S)NC(=O)C3CCCC3)cc2)n1,0.9
CC(Oc1ccc(-c2ccccc2)cc1)C(=O)O (configuration not stated),i
C=CCn1c(CSc2nc3ccccc3s2)nnc1SCC(=O)OCC,0.3
C=CCN(CC=C)c1nc2ccccc2nc1C(C#N)C(=O)OCCOC (configuration not stated),i
Clc1ccc(CSc2nnc([C@@H]3CCCN3)o2)cc1Cl,i
COC(=O)C1=C(N)Oc2cc(C)n(CC3CCCO3)c(=O)c2C1c1ccc(Cl)cc1 (configuration not stated),i
COC(=O)c1ccccc1N(C)C(=O)C12CCC(C)(C(=O)O1)C2(C)C (configuration not stated),0.8
COc1cccc2cc(C(=O)N3CCC(C)CC3)c(=O)oc12,1.3
COC(=O)c1ccsc1NC(=O)CN1CCN(c2ccc(F)cc2)CC1,0.1
O=C(Nc1c(C(=O)N2CCOCC2)cnn1-c1ccccc1Cl)c1ccco1,0.8
CC1CCN(C(=S)NC2CCCCC2)CC1,0.5
C=CCn1c(O)c(C(C)=Nc2ccc(N(C)C)cc2)c(=O)[nH]c1=O,i
O=C(CCCn1c(=S)[nH]c2cc3c(cc2c1=O)OCO3)N1CCN(c2ccc(Cl)cc2)CC1,8.9
COCCNC(=O)C1CC(c2cccc([N+](=O)[O-])c2)=NO1 (configuration not stated),i
O=C(c1ccc(S(=O)(=O)N2CCCC2)cc1)N1CCN(Cc2ccc3c(c2)OCO3)CC1,1.6
COC(=O)c1cc(-c2ccccc2)sc1NC(=O)CN1C(=O)c2ccccc2C1=O,0.1
Cc1ccc(Oc2ncc(-c3ccc(Cl)cc3)cn2)cc1,i
C=CCNS(=O)(=O)c1nc(C)c(Cl)c(C)c1C#N,1.6

# Next compounds follow:
SMILES,H5N1 CPE
Cc1cc(C)n2c3c(c(C#N)c2n1)CCCC3,0.6
O=[N+]([O-])c1ccc(/C=N/Nc2nc(N3CCCC3)nc(N3CCCC3)n2)o1,1.3
O=C(Cc1ccccc1)Nc1ccc(N2CCOCC2)cc1N1CCOCC1,i
COc1cccc(-n2nnnc2SCC(=O)NCc2ccc3c(c2)OCO3)c1,i
N#Cc1c(C(F)(F)F)cc(-c2ccccc2)[nH]c1=O,i
COc1ccc(OC)c(-n2c(SCC(C)=O)nnc2-c2cccc(S(=O)(=O)N(C)C)c2)c1,0.9
CC(=O)c1nn(-c2cccc(Br)c2)cc1C(=O)c1ccc2ccccc2c1,0.1
C=CCn1c(=O)c2ccccc2n2c(SCC(=O)Nc3cc(C)on3)nnc12,1.0
COc1cccc(-c2nc(-c3ccc(NC(=O)c4cccnc4)cc3)no2)c1,0.8

# Screens from PubChem.
